Compound activity (PubChem BioAssay)
NPYLR7 ag: mosquito NPYLR7 agonism. HEK293T NPYLR7/Galpha15, GCaMP6s calcium fluorescence. AID 1259423. activation, % at 10 µM. hit rate 0.15% among 270,000; in the data active = activation above about 40%;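 note: 0% = vehicle and 100% = reference agonist at the receptor; some compounds past the cut are filed as inactive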
NPYLR7 ag max-min: second read-out of NPYLR7 ag, no call of its own (marks repeat the call); activation, %; measured here: Max-Min RFU normalised activation; some inactives read as strong as hits;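 span of the calcium signal over five minutes; 0% = vehicle and 100% = native peptide agonist; compound fluorescence can raise it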
* marks the source's active call; other numbers are inactive results; & = joins results of further samples.

SMILES	NPYLR7 ag	NPYLR7 ag max-min
CCCC(=O)NCC1CCCN(C(=O)c2cc(C)sc2C)C1 (stereo not given)	3	5
CSc1ccc(-c2ccc(-n3ccnc3)cc2)nn1	13	11
CNC(=O)Oc1ccc2c(c1)[C@]1(C)CCN(C)C1N2C (stereo not given in full)	-1	-5
Cc1cccc(S(=O)(=O)NCCc2csc3nc(-c4ccccc4C)nn23)c1	2	0
CCCC(=O)N1CCCC1C(=O)NC(C)c1cc(C)sc1C (stereo not given)	6&-2	3&-1
COc1ccccc1CNC(=O)c1ccc2nc(C)c(N(C)Cc3ccc(NC(C)=O)cc3)n2c1	26	13
COc1cc(CN(Cc2ccc(C(O)(c3cccs3)c3cccs3)o2)C(C)C)cc(OC)c1	-1	2
CCCCn1nnnc1NCc1cc(OC)c(OC)c(OC)c1	3	1
COC(=O)c1c(NC(=O)c2ccccc2Br)sc(C)c1C	-2	-5
O=C(CSc1nc(=O)n(CCCO)c2c1CCCC2)Nc1cccc([N+](=O)[O-])c1	-3	-9
CC(C)C(C)(C#N)NC(=O)COC(=O)c1ccccc1-c1ccccc1C#N (stereo not given)	4	2
CC1(C)C(c2ccccc2)[N+](=O)C(c2ccccc2)=C(c2ccccc2)N1[O-] (stereo not given)	13	-2

The final three compounds of the section above lead into the next:
SMILES	NPYLR7 ag	NPYLR7 ag max-min
O=C(CSc1nc(=O)n(CCCO)c2c1CCCC2)Nc1cccc([N+](=O)[O-])c1	-3	-9
CC(C)C(C)(C#N)NC(=O)COC(=O)c1ccccc1-c1ccccc1C#N (stereo not given)	4	2
CC1(C)C(c2ccccc2)[N+](=O)C(c2ccccc2)=C(c2ccccc2)N1[O-] (stereo not given)	13	-2
Cc1nc2ccc(F)cc2n1C1CCN(C(=O)C(C)CC(F)(F)F)CC1 (stereo not given)	3	-1
O=C(CCc1nnc(CCc2ccccc2)o1)NCC(F)(F)F	3	0
COc1ccc(C(=O)N2CCN(C3c4ccccc4CCc4ccccc43)CC2)cc1F	27	14
CCOc1ccc(C=C2SC(=O)N(CCNC(=O)CCNC(N)=O)C2=O)cc1OC	-3	-10
CCn1c(CN2CCCCCC2=O)nnc1SCC(=O)NC1CCCCC1	3	5
CCOC(=O)N1CCC(NS(=O)(=O)CCCOc2ccc(F)cc2)CC1	7	9
COc1ccc(C)c2sc(N(CCCN3CCOCC3)C(=O)c3ccc(F)cc3)nc12	3	1
Cc1nc2ccccn2c(=O)c1NC(=O)c1ccc2c(c1)OCO2	2	-1
CCC(CC)C(=O)N(C)c1c(C)nc2c(OCc3ccc(OC(F)F)cc3)cccn12	4	-4
Cc1cc2c(cc1Br)NCC(C)O2 (stereo not given)	5&2	3&-2
CC(OC(=O)Cn1[nH]c(=O)c2ccccc2c1=O)C(=O)NC1CCCCC1C (stereo not given)	0	0
Cc1cn(C2OC[C@@H](O)[C@@H]2CO)c(=O)[nH]c1=O (stereo not given in full)	7	8
Cc1ccc2nc(OCc3ccccc3Cl)c(CNCc3cnn(C)c3)cc2c1	24	16
CCCc1ncncc1C(=O)N1CCOC(c2ccc(Cl)cc2)C1 (stereo not given)	1	9
CCc1ccc(CN(C)Cc2cn[nH]c2-c2ccc(OC)cc2OC)cc1	7	2
COC(=O)C1=C(C)N(C(C)C)C(=O)C1(NC(=O)c1ccc(C(C)(C)C)cc1)C(F)(F)F (stereo not given)	4	2
O=C(COc1ccccc1F)NC1CCN(c2ccccc2)C1=O (stereo not given)	-1	-2
COCCCC1CCCCN1C(=O)NCCc1ccccc1 (stereo not given)	22	14
c1cc(-c2cncnc2)cc(-c2ccn(CC3CCCCO3)n2)c1 (stereo not given)	-23	-17
O=C(c1ccc(Cl)cc1)N1CCSC12CCN(S(=O)(=O)c1cccc3cccnc13)CC2	30	27
Cc1ccnc(-c2ccc(NC(=O)NCc3ncccc3C)cc2)n1	0	-6
O=C(NCc1c(F)cccc1F)c1cncn1-c1ccc(-c2ccc(F)c(F)c2)cc1	5	4
COc1ccc(NC(=O)CCC2CCCN(C(=O)CCn3cncn3)C2)cc1Cl (stereo not given)	3	2
CCOc1ccc(S(=O)(=O)N2CC3(C)CC2CC(C)(C)C3)cc1 (stereo not given)	1	-2
CC(C)(C)c1ncc2c(n1)CN(C(=O)Cc1ccc3c(c1)NC(=O)CO3)C2	20	7
CCC(C=NNC(=O)Cc1cn2ccsc2n1)CC	6	1
CCc1nnc(CN(C(=O)c2cc(C(C)C)nn2C)C(C)C)o1	-3	-8
CCN(C(=O)c1ccccc1N1CCC(NC(=O)OC)CC1)C1CCCCC1	23	23
O=c1c2ccccc2[nH]c(=S)n1C1CCCC1	-5	-7
COc1cc([N+](=O)[O-])ccc1NC(=O)C1CCCN1S(=O)(=O)c1ccc(Cl)s1 (stereo not given)	-1	-1
CCC(=O)N1CCC1(C)C(=O)NCc1ccc2c(c1)OCO2 (stereo not given)	7	5
Nc1ncccc1C(=O)OCC(=O)Nc1ccc(I)cc1	5	4
O=C(O)c1ccccc1-n1c(-c2snnc2-c2ccccc2)n[nH]c1=S	-5	-16
COc1cn(CC(=O)Nc2ccccc2F)c(CSc2nnnn2C)cc1=O	-6	-15
COCCNC(=O)C(=O)NCC1CCCO1 (stereo not given)	12	12
Cc1ccc(C)c(Nc2nc(N3CCCC3)nc3nccnc23)c1	4	2
CC(=O)c1ccc(SCC(=O)Nc2ccc(S(=O)(=O)N3CCCCC3)cc2)c(F)c1	4	2
CC(=O)NC(CC(=O)N1CC(C)OC(C)C1)c1ccc(Cl)cc1 (stereo not given)	-1	-2
COc1cc(C=Nn2nnnc2N)ccc1OCCc1ccccc1	-2	-4
Oc1ccccc1-c1cc(C(F)(F)F)nc(-c2ccccc2)n1	3	-1
C=CCNC(=O)C(C1CCCC1)N1CCN(C(=O)C2CCC2)CC1 (stereo not given)	-7	-1
CN(Cc1csc(-c2cccs2)n1)C(=O)c1cn(C2CC2)cc(C(=O)NC2CCCCC2)c1=O	-6	-9
Cc1cc2cc(CNC(=S)NCc3ccccc3)ccc2[nH]1	-1	2
CCN(Cc1nc2ccccc2c(=O)[nH]1)C(=O)c1ccc2c(c1)CCC2	-3	-4
Cc1ccc(Cc2nn3c(SCC(=O)N(C)c4ccccc4)nnc3[nH]c2=O)cc1	-1	-2
CC(NC(=O)C=C1CCCCC1)c1ccc(S(C)(=O)=O)cc1 (stereo not given)	-6	-7
CCc1ccccc1-c1cncc(C(N)=O)c1	15	1
Oc1oc(-c2ccc(Cl)cc2)nc1C=Nc1ccccc1Cl	0	-3
COc1cc(C)ccc1Oc1cc(N2CCN(C(=O)c3cccc(Cl)c3)CC2)ncn1	-8	-4
CCc1noc(CCNC(=O)Cn2ncc3ccccc32)n1	23	16
CC(C)OCCCNC(=O)NC(=O)CSc1nnc(Nc2ccccc2F)s1	5	6
C#CCn1c(=NC(=O)c2ccn(CC)n2)sc2cc(F)ccc21	-1	-4
CC(C)c1ccc(C2CC(c3ccc(Br)cc3)n3nnnc3N2)cc1 (stereo not given)	26	13
CCOc1cccc2cc(C(=O)Nc3ccc(Oc4ccccc4)cc3)c(=O)oc12	-9	-18
Cc1cc(C)c2nonc2c1S(=O)(=O)N1CCCC(N2CCCC2=O)C1 (stereo not given)	5	2
Cc1nc2nnc(N)n2nc1C	-16	-19
CCOC(=O)C1(C)CCCN1C(=O)c1cccc(OC(F)(F)F)c1 (stereo not given)	-3	-5
Cc1cccc(OCC2c3ccsc3CCN2C(=O)CNCc2ccco2)c1 (stereo not given)	-1	2
COc1ccc(OC)c(-c2nc3cc(C)cc(C)n3c2NCc2ccccc2)c1	12	20
O=C(Cc1cc(F)cc(F)c1)N1CCc2c(sc3[nH]c(=O)n(-c4ccc(Cl)cc4)c(=O)c23)C1	4	1
(listing goes on)
SMILES	NPYLR7 ag	NPYLR7 ag max-min
OCC(CO)N1CCCC1c1nc(-c2ccccc2)no1 (stereo not given)	1	-1
S=c1[nH]nc(-c2nccc3ccccc23)n1Cc1ccccc1	-7	-12
CC1CCCN1C(=O)c1ccc(-c2ccc(C3CCCCC3)cc2)s1 (stereo not given)	3	-1
CCc1c(C)c(C(=O)NCCN2CCOCC2)n(Cc2ccccc2F)c1C	23	19
O=C(Nc1ccc(-c2cscn2)cc1)C1CCCN(C(=O)CN2CCCC2=O)C1 (stereo not given)	0	0
CCCN(Cc1nccn1C)C(=O)c1cccc(CC2CCNCC2)c1	5	-4
O=[N+]([O-])c1cc(O)c(N=Cc2ccco2)cc1Cl	0	0
COC(=O)CCc1c(C)nn(-c2ccc(C(=O)NCC3CCCO3)cc2)c1C (stereo not given)	4	5
CCCc1[nH]n(-c2ccc(C)cc2C)c(=O)c1C1=C([n+]2ccccc2)C(=O)N(c2ccc3c(c2)OCO3)C1=O	5	3
CCOC(=O)N1CCN(C(=O)CSc2nc(=O)n3ccccc3n2)CC1	2	0
COc1ccccc1-n1c(-c2ccc(Cl)cc2)cc(C(=O)N2CCN(C(=O)c3ccc(F)cc3)CC2)c1C	-5	5
CC1(C)CC(C(C#N)C#N)=CC(=NCc2ccco2)C1	3	1
COc1cccc(CN2C(=O)NC(C)(C3CCN(C(=O)/C=C/c4cccc(F)c4)CC3)C2=O)c1OC (stereo not given)	30	14
CN(C)c1ccc(-c2nc3ncc(Cl)c(N4CCN(CC(=O)Nc5nccs5)CC4)c3[nH]2)cc1	-9	-17
O=S(=O)(Nc1ccc(N2CCOCC2)cc1)c1c(F)cc(F)cc1Br	0	-1
O=C1CCCN1CC(O)CN1CCC(=O)N(CC2CC2)Cc2cc3c(cc21)OCO3 (stereo not given)	10	18
CC1CN(C)CCN1C(=O)Cn1ccc(=O)c2ccccc21 (stereo not given)	4	5
O=C(NCCNS(=O)(=O)c1ccc(Cl)cc1)C1COCCO1 (stereo not given)	19	10
Cc1cc(=O)[nH]cc1C(=O)N1CCC(CN2CCc3ccccc32)CC1	8	7
CC1CCCCC1NC(=O)c1ccc2c(c1)CCCN2S(C)(=O)=O (stereo not given)	-2	-1
COc1ccc(OC)c(C2c3cccn3-c3ccccc3N2C(=O)CN(C(=O)c2ccc(C)c([N+](=O)[O-])c2)C(C)C)c1 (stereo not given)	15	16
Cc1ccccc1OCc1ccc(-c2nc(C#N)c(NC3CC3)o2)o1	0	37
O=[N+]([O-])c1cc(S(=O)(=O)Oc2cccc(Cl)c2Cl)ccc1Cl	-2	-4
Cc1cc(NC(=O)c2ccccc2S(C)(=O)=O)n(-c2nc3c(F)cccc3s2)n1	-9	-14
CCCC(C)c1nnc(NC(=O)c2c(C)nc3sccn23)s1 (stereo not given)	36	16
CCN1CSC(=S)N(Cc2ccccc2)C1	5	3
Cc1ccc(C)c2sc(N(Cc3ccccn3)C(=O)C3=COCCO3)nc12	-2	-6
COC(=O)CCC(C)[C@H]1CCC2C3C(C[C@H](O)[C@@]21C)[C@@]1(C)CC[C@@H](O)C[C@H]1C[C@H]3O (stereo not given in full)	-7	-13
CC(C)N1CCC(N2CCN(Cc3ccc(F)cc3Cl)CC2CCO)CC1 (stereo not given)	4	3
Cc1cccn2c(=O)nc(SCCc3ccccc3)nc12	-5	-8
CC1CS(=O)(=O)CCN1Cc1ncc(-c2ccccc2Cl)o1 (stereo not given)	-1	0
COc1ccc(CN(Cc2nc(C(=O)NCCc3ccccn3)co2)C(C)C)c(OC)c1	14	2
CSc1nnc(C)c(=O)n1COC(=O)COc1ccc(Cl)cc1	0	-4
Cc1nn(C(C)C)c(C)c1CN1CCN(c2nccc3ccccc23)CC1	3	1
CC1(c2ccc(F)cc2)C=C(c2ccc(F)cc2)n2nnnc2N1 (stereo not given)	-4	-6
Cc1ccc2oc(C(=O)N3CCC(c4nc5ccccc5o4)CC3)c(C)c2c1	6	-9

Grouped by structure: the compounds so far containing two or more sulfur atoms (11)
SMILES	NPYLR7 ag	NPYLR7 ag max-min
Cc1cccc(S(=O)(=O)NCCc2csc3nc(-c4ccccc4C)nn23)c1	2	0
COc1cc(CN(Cc2ccc(C(O)(c3cccs3)c3cccs3)o2)C(C)C)cc(OC)c1	-1	2
O=C(c1ccc(Cl)cc1)N1CCSC12CCN(S(=O)(=O)c1cccc3cccnc13)CC2	30	27
COc1cc([N+](=O)[O-])ccc1NC(=O)C1CCCN1S(=O)(=O)c1ccc(Cl)s1 (stereo not given)	-1	-1
O=C(O)c1ccccc1-n1c(-c2snnc2-c2ccccc2)n[nH]c1=S	-5	-16
CC(=O)c1ccc(SCC(=O)Nc2ccc(S(=O)(=O)N3CCCCC3)cc2)c(F)c1	4	2
CN(Cc1csc(-c2cccs2)n1)C(=O)c1cn(C2CC2)cc(C(=O)NC2CCCCC2)c1=O	-6	-9
CC(C)OCCCNC(=O)NC(=O)CSc1nnc(Nc2ccccc2F)s1	5	6
Cc1cc(NC(=O)c2ccccc2S(C)(=O)=O)n(-c2nc3c(F)cccc3s2)n1	-9	-14
CCCC(C)c1nnc(NC(=O)c2c(C)nc3sccn23)s1 (stereo not given)	36	16
CCN1CSC(=S)N(Cc2ccccc2)C1	5	3

Following part:
SMILES	NPYLR7 ag	NPYLR7 ag max-min
C=CCOC(=O)C1=C(C)NC2=C(C(=O)CCC2)C1c1ccc(OC)c(OC)c1 (stereo not given)	-1	-7
Cn1c2ccc(Cl)cc2c2nc3ccccc3nc21	3	2
O=C(Nc1nc2ccc(Cl)cc2s1)C1CCCN(c2ccc(-n3ccnc3)nn2)C1 (stereo not given)	4	6
CC(C)CCN(Cc1c(-c2ccccc2)noc1N1CCN(C)CC1)C(=O)C(C)C	5	12
CCCCN(C)C(=O)c1[nH]c(C)c(C(C)=O)c1C	1	-2
CC(C)c1noc(C2CCN(C(=O)c3ccccc3C3CCNC3)CC2)n1 (stereo not given)	10	8
CN(C)S(=O)(=O)c1ccc2nc(/C(Cl)=C/c3ccccc3F)[nH]c2c1	3	1
CC(C)CCNC(=O)c1cc(Cl)ccc1[N+](=O)[O-]	2	5
Cc1ccc(Cn2cc(C(=O)NNC(=O)Nc3ccc(C(C)(C)C)cc3)ccc2=O)cc1	-2	-3
CCc1nc2ccc(C(=O)N3CCN(c4ccccc4)CC3)cn2c1N(C)C=O	3	24

Not all compounds are listed, so the mix of outcomes need not match the whole.
